A1 inh: caspase 3/7 activation in MEF A1-2A-BIM cells, primary screen, A1 inhibitor project, cell-based, luminescence, HTS | AID 2462, 2010 | caspase activation, % (no concentration beside the values) | 330,000 tested, 0.066% active | Caspase-Glo 3/7 luminescence, 3 h; percent of clofoctol response, vehicle zero;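 active = over half of replicate activation scores above 10%, or exactly half above 10 with the replicate mean above 10; inconclusive = replicate mean below 10 yet half the replicates above 10; inactive = over half of replicates below 10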;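 note: wells of about 30 µL received 50 nL stock; many hits fall short of the cut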
Ecoli growth: E. coli growth inhibition, primary screen, OD600. 330,000 tested, 0.21% active. Escherichia coli growth, 23 h; hits give low values. OD600 absorbance (test concentration not listed);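 active = OD600 absorbance below the run mean of sample wells minus 3.6 SD, in any replicate, cut at about 0.56 in these data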;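 note: stock transfer was 300 nL into about 60 µL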
LANA-H2A inh: blockers of LANA interaction with H2A/H2B – biochemical, FP readout, HTS, primary screen. 320,000 tested, 0.6% active. cell-free LANA-H2A/H2B peptide, fluorescence polarization. Protein LANA1 (Human herpesvirus 8 type P (isolate GK18)), Q9QR71. AID 2629, 2010. inhibition, % (test concentration not listed); in the data active = inhibition mostly above about 10%, no sharp cut-off; inactive = mostly below about 6.7%;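 note: stock transfer was 7.5 nL into about 10 µL; 0% = median of vehicle wells and 100% = median of positive control wells; one replicate is shown; the record names a cut of 25% in any replicate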
UCH37 DUB inh: inhibitors of human UCH37 deubiquitinase, primary screen, biochemical, Ub-AMC cleavage, fluorescence; purified proteasome/UCH37; inhibition, % (concentration not given with the values); 330,000 tested, 0.33% active; AID 588478, 2011;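 active = mean of two replicates above 20%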;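 note: 0% = compound-free wells with enzyme and 100% = wells lacking proteasome; stock transfer was 100 nL into about 20 µL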
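system = Proteasome-associated human UCH37 deubiquitinase | amount = 0.15 nM proteasome as dispensed | medium = pH 7.4 Tris-HCl (50 mM) with ovalbumin, ATP-MgCl2, DTT | incubation = 30 min preincubation with enzyme, 25 min cleavage at room temperature | detection = AMC fluorescence 355/460 nm | read-out basis = percent inhibition | controls = no-proteasome and no-compound wells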
HNF4A DNA FP: change in binding of human HNF4A to DNA, primary screen, biochemical, fluorescence polarization, FITC-DNA. Hepatocyte nuclear factor 4-alpha (Homo sapiens), P41235. 1 h. activity change, % at 10 µM. 360,000 tested, 0.3% active; in the data active = activity change above about 30%, passing the limit was not always enough;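 note: controls were the assay level and a saturating level of protein; the project sought stronger binding though the title names inhibitors; some compounds called inactive have numbers as strong as hits; positive values seem to mean higher polarization but the record does not say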
Target sequence (P41235 whole entry, looked up): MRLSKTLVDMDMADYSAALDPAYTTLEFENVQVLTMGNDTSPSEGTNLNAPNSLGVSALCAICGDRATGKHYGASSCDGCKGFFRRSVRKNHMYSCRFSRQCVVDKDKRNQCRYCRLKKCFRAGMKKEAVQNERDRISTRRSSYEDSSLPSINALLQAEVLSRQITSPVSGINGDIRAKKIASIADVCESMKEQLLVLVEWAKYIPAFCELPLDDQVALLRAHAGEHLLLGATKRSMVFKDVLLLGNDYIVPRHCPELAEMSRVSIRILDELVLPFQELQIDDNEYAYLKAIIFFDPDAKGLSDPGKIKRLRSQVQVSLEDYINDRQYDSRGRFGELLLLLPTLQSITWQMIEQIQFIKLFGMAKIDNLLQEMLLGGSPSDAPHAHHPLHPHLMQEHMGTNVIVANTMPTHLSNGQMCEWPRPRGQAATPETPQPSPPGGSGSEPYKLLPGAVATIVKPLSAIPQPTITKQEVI
Vif TR-FRET: inhibitors of Vif binding to APOBEC3G peptide, primary screen, biochemical, TR-FRET, GST-Vif 1-94, biotin-A3G peptide, dose response retest (AID 1117319) | Virion infectivity factor (Human immunodeficiency virus type 1 group M subtype B (isolate … | TR-FRET GST-Vif / biotin-A3G peptide binding; higher % means a stronger effect; test concentration not given here; strong numbers were not always called active | inhibition, %, or IC50 in µM where a hit was titrated | 260,000 tested, 0.57% active;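 active = above the screen mean plus three standard deviations and confirmed in dose response; inconclusive = results disagree or hit not tested in dose response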;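 note: Vif residues 1-94 fused to GST binding biotinylated APOBEC3G peptide 110-148; 0% = full assay without inhibitor and 100% = GST in place of GST-Vif; retest series ran down from 100 µM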
Beta2AR agonist: beta2AR agonists driving receptor internalization, primary screen, cell-based, FAP fluorogen, flow cytometry; Beta-2 adrenergic receptor (Homo sapiens), P07550; Am2.2-beta2AR cells; reference of the scale not given here; response, % (no concentration beside the values); 340,000 tested, 0.43% active;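 active = response above a set limit, near 3 SD of response in nonfluorescent compounds, cut at about 42% in these data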;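 note: stock transfer was 100 nL into about 11 µL; a reference agonist was the positive control; negative values mostly stem from fluorescent compounds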
Target sequence (P07550 whole entry, looked up): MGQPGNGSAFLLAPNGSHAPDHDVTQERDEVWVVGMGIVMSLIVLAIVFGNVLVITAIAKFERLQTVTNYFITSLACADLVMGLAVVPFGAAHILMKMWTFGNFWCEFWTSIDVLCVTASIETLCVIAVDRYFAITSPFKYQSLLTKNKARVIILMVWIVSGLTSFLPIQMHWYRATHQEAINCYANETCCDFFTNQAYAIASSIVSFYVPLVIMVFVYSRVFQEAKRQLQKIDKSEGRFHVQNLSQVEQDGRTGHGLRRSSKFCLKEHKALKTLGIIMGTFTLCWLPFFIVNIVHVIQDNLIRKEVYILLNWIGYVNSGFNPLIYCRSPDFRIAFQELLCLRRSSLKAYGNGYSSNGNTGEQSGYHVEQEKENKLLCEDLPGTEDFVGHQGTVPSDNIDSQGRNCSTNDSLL
Active calls of the source: *; i = inactive; ? = inconclusive; nt = no result given.

Molecule	Ecoli growth	A1 inh	HNF4A DNA FP	Vif TR-FRET	UCH37 DUB inh	LANA-H2A inh	Beta2AR agonist
O=C(O)CC/C(=N\Nc1ccc([N+](=O)[O-])cc1)c1ccccc1	nt	0.3	11.5	2.7%	nt	-0.3	14.5
CC(=O)c1sc(N/N=C2\CC3CC2C(C)C3(C)C)nc1C (stereo not drawn)	nt	-0.6	1.4	?	nt	0.8	-1.4
COC(=O)c1sccc1NC(=S)Nc1cc(C)cc(C)c1	0.702	-1.0	3.9	0.6%	2.2	-3.1	0.7
C=CCNC(=S)N1CCN(CCN=CC2=C(O)CC(c3ccco3)CC2=O)CC1 (stereo not drawn)	0.619	-0.1	-2.0	29.7%	1.8	-7.1	3.3
Cc1ccc(C)c(C(=O)CCC(=O)N2CCN(c3cccc(C(F)(F)F)c3)CC2)c1	0.714	-1.5	3.4	2.9%	3.5	-3.2	4.3
CCc1noc(C)c1C(=O)NNC(=O)COc1ccc(C)cc1	0.699	-0.2	0.1	-6.7%	3.6	-3.3	4.4
Cc1nnc(SCc2ccccc2Cl)n(N)c1=O	nt	-0.1	2.0	-1.6%	nt	5.3	-6.1
Cc1ccc(NC(=O)CSc2nc(O)cc(=O)n2C)cc1	0.775	-0.1	0.1	-12.9%	8.6	-1.8	-0.1
Cc1ccc(S(=O)(=O)N2CCCCC2)cc1C(=O)NC1CC(C)(C)NC(C)(C)C1	0.629	0.7	-0.9	-4.4%	2.0	1.7	-3.9
COc1ccc(S(=O)(=O)N2CCCC2CNC(=O)c2cccc(OC)c2)cc1 (stereo not drawn)	0.627	0.9	-1.7	-4.3%	-0.3	5.2	1.6
O=C(Nc1ccccc1F)c1ccccc1-c1ccccc1	0.707	2.3	2.1	15.4%	3.9	-4.2	-4.4
NC1=NC(c2ccccc2)CC(=O)N1 (stereo not drawn)	0.679	nt	6.3	-4.4%	-0.6	nt	-5.3
COc1ccc(OC)c(NC(=O)C2CCN(c3ncccn3)CC2)c1	0.668	nt	-3.1	-0.3%	-4.1	5.6	-1.5
CN(/N=C/c1ccc(Br)o1)C1=NS(=O)(=O)c2ccccc21	nt	-0.6	3.5	21.9%	nt	-1.2	6.2
CCc1nnc(N/N=C/c2ccc(-c3ccc([N+](=O)[O-])cc3)o2)n1N	nt	-1.1	6.1	-10.2%	nt	-0.9	-5.5
CS(=O)(=O)N(CC(=O)NCc1ccncc1)c1ccc(F)c(Cl)c1	0.721	-0.7	-0.1	?	1.6	-20.1	11.3
CCOc1ccc(OCC)c(NC(=O)C2CCCN(S(=O)(=O)c3c(C)noc3C)C2)c1 (stereo not drawn)	0.745	1.3	-0.9	6.1%	5.5	1.8	5.2
COC(=O)c1cc(S(=O)(=O)N2CCN(c3cccc(C)c3)C(C)C2)c[nH]1 (stereo not drawn)	0.688	0.4	3.8	nt	3.7	5.0	-4.3
CN(C)C1=NC[C@H](Cc2ccccc2)N1CC1CCCCC1	0.693	-0.1	5.3	nt	2.1	-3.1	0.6
CC(=O)C1=C(c2ccccc2)OC(N)=C(C#N)C1c1ccccc1F (stereo not drawn)	0.681	0.0	1.3	-3.1%	-3.5	-4.7	6.5
Cc1ccc(NS(=O)(=O)c2cccc(C(=O)NC3CC3)c2)c(C)c1	0.633	-0.2	-1.9	nt	-0.8	2.5	7.3
O=C(NCc1ccc(Cl)cc1)c1nccnc1CO	0.692	-0.1	-8.9	-3.2%	5.1	1.0	2.8
O=C(/C=C/c1cccc([N+](=O)[O-])c1)c1cccs1	0.675	-2.1	2.4	0.1%	5.7	-4.0	14.8
CCCCCCCCCC(=O)NNC(=O)c1c(O)c2ccccc2n(CC)c1=O	0.665	0.3	0.9	-4.0%	-11.4	4.1	3.5
Nc1[nH]n2c(=O)cc(-c3ccccc3)nc2c1N=Nc1ccc2c(c1)OCO2	0.695	0.1	nt	nt	6.1	0.7	nt
CCOC(=O)/C=C1\SC(C)C(=O)N1CC(=O)N(CCC#N)c1ccccc1 (stereo not drawn)	0.638	0.5	-2.3	82.1%	2.5	-0.4	8.8
CN(Cc1cccc(F)c1)C(=O)c1ccc(S(=O)(=O)C(F)F)cc1	0.663	0.1	11.8	23.8%	2.1	-2.0	-2.3
Fc1ccc2c(c1)[C@H]1OCC[C@H]1[C@@H](c1ccco1)N2	0.676	-3.0	3.6	22.0%	-7.4	6.2	-5.0
Cc1cc(Cl)ccc1NC(=O)CN1CCN(C(=O)c2ccco2)CC1	0.622	0.8	-1.0	1.5%	0.4	1.0	2.9
COc1ccc(CNc2nc3ccccc3n2CCN2CCOCC2)cc1	0.683	-0.5	-2.8	nt	-1.8	0.8	-15.1
COC(=O)c1scc(C)c1NC(=O)c1cccc(C#N)c1	0.658	-0.3	3.7	-1.7%	1.6	-4.9	4.3
COc1ccc(C)cc1N(CC(=O)NCCSCc1ccco1)S(=O)(=O)c1ccc(C)cc1	0.669	-1.1	-0.8	nt	1.6	-1.2	6.8
CCCCOc1ccc(NC(=O)Cn2c(=O)ccc3c(C)cc(C)nc32)cc1	0.689	0.3	-1.8	-9.3%	-5.4	-3.6	-3.4
COc1ccc(-n2c(SC3CCOC3=O)nc3ccccc3c2=O)cc1OC (stereo not drawn)	0.622	1.4	-3.2	1.9%	1.1	-0.2	-10.8
O=C(Nc1ccc(Cl)c(C(F)(F)F)c1)[C@@H]1CC=C[C@@H]2CCN(C3CC3)C(=O)[C@@H]21	nt	0.7	1.2	nt	2.9	-2.6	-5.1
O=C(NCc1ccccc1)c1cc2ccccc2o1	0.733	-1.6	-0.1	4.1%	-6.0	-5.7	-0.1
COc1ccccc1CN1CC(C(=O)NCc2c(F)ccc(C)c2F)CCC1=O (stereo not drawn)	0.648	0.5	-4.6	-2.1%	0.8	4.3	8.0
COc1ccc(C)cc1NC(=O)CSc1nnc(-c2ccc(Br)cc2)o1	0.729	0.1	-0.1	21.3%	0.1	-1.9	5.2
O=C(Nc1cccc(Cl)c1)NC1CCCCC1	0.642	-1.7	-3.6	29.9%	2.2	-4.9	-16.0
Cc1ccnc(NC(=O)CCC(=O)N(CC(=O)NCCc2ccccc2)c2ccccc2F)c1	0.705	-0.4	-1.9	nt	-1.8	-2.0	-1.4
CC(C)CN(CC(C)C)C1=N/C(=C\c2ccco2)C(=O)N1c1ccccc1	nt	-0.4	1.1	?	-16.6	0.8	6.9
Cc1noc(NS(=O)(=O)c2ccc(NC(=O)c3oc4ccc(Cl)cc4c3C)cc2)c1C	0.69	0.1	3.0	-1.7%	3.3	-2.1	12.6
O=C(NC(=S)NCC1CCCO1)c1ccc([N+](=O)[O-])cc1 (stereo not drawn)	0.691	-0.2	1.4	0.4%	6.3	2.6	-29.0
CN(C(=O)c1ccccc1Cl)C1CCCCC1	0.688	0.0	-1.0	8.4%	2.2	-5.2	3.9
Cc1[nH]c2ccccc2c(=O)c1SC(F)(F)C(F)C(F)(F)F (stereo not drawn)	0.724	1.5	1.2	5.7%	-0.7	2.2	-7.8
Cc1ccc(NC(=O)NC(=O)c2ccccc2)cc1F	0.659	-5.7	-4.1	nt	2.3	-1.9	2.9
COc1ccc(N2C(=O)C(C)(C)C2c2c(O)ccc3ccccc23)cc1 (stereo not drawn)	0.673	0.8	-0.7	-4.0%	3.0	3.2	9.7
COc1ccc(C)cc1NC(=O)CN(C)S(=O)(=O)c1cccs1	0.747	-1.1	3.2	4.1%	5.1	-1.2	-5.0
O=C(Nc1cccc([N+](=O)[O-])c1)C1C2CCCCC21 (stereo not drawn)	0.715	0.2	8.9	nt	2.3	4.8	-11.0
CCc1cc2cc(C)cc(C)c2nc1SCC(=O)N1CCCC1	0.748	-0.6	-1.7	3.7%	8.2	3.4	5.6
Cc1ccccc1CS(=O)(=O)CC(O)CN1CCCC1=O (stereo not drawn)	0.681	0.2	2.4	5.9%	0.3	1.2	-0.2
O=C(CN(Cc1ccccc1Cl)C(=O)c1csnn1)NCc1ccc2c(c1)OCO2	0.555	0.2	3.3	nt	1.1	0.6	-2.6
CCCNC(=O)N1CCN(S(C)(=O)=O)CC1	0.687	0.6	1.9	-10.7%	0.3	3.4	10.1
CC(Oc1ccc2c(-c3ccccc3)cc(=O)oc2c1)C(=O)NCCN1CCOCC1 (stereo not drawn)	0.689	0.0	-3.8	nt	7.0	7.6	-8.5
CCOC(=O)CCNC(=O)N1CCCC(Cc2ccccc2)(C(=O)OCC)C1 (stereo not drawn)	0.666	1.9	-0.1	nt	0.2	0.5	11.8
CCc1cc(=O)oc2c3c(cc(OCC(=O)N[C@H](C(=O)O)[C@H](C)CC)c12)OC(C)(C)CC3	0.673	-0.7	0.7	-4.3%	i	3.6	-1.1
Cn1ncc(C#N)c1/N=C/N1CCCCC1	nt	1.7	3.1	-4.3%	nt	-4.6	-13.1
COCCSc1nnc(NC(=O)c2ccc(NC(=O)C(C)C)cc2)s1	0.669	0.6	-5.0	18.3%	-4.9	3.0	-21.4
Cc1nc(N)c2c(Cc3cccc4ccccc34)nn(C(C)(C)C)c2n1	0.65	1.1	1.3	nt	4.6	-11.6	2.0
Cc1noc(C)c1C(=O)OCC(=O)NC(=O)NC12CC3CC(CC(C3)C1)C2	0.682	-0.4	-3.2	-0.5%	4.0	8.4	-4.6

Next results.
Molecule	Ecoli growth	A1 inh	HNF4A DNA FP	Vif TR-FRET	UCH37 DUB inh	LANA-H2A inh	Beta2AR agonist
Nc1c(S(=O)(=O)c2cccs2)c2nc3ccccc3nc2n1/N=C/c1cccc(O)c1	nt	-0.6	-0.2	14.7%	nt	-1.1	17.6
O=S(=O)(c1cc(Br)c(Cl)s1)N1CCCC1	0.646	1.1	-4.1	3.6%	7.3	-2.5	-1.2
CC1CC(=O)N(CC(=O)Nc2ccc(F)cc2F)c2ccccc2S1(=O)=O (stereo not drawn)	0.654	0.4	-0.5	0.4%	1.1	-0.6	6.5
COc1cc(/C=N\Nc2nc3ccccc3o2)cc(OC)c1OC	nt	-0.2	-0.1	-2.0%	nt	0.7	-3.9
COc1ccc(NC(=O)CSc2nnc(C3CCCCC3)n2N)cc1	0.705	-0.3	2.3	2.5%	6.6	-2.3	-4.6
CC(OC(=O)CCC(=O)c1cccs1)C(=O)Nc1ccc(Cl)cn1 (stereo not drawn)	0.698	-0.1	-2.8	15.3%	0.8	-3.7	2.4
CN(N=O)c1ccc(CC2CCc3ccccc32)cc1 (stereo not drawn)	nt	nt	1.5	1.6%	nt	nt	3.2
O=C(NCc1ccccc1)c1cc[n+]([O-])cc1	0.619	0.3	-0.2	-13.3%	-2.4	2.2	1.0
CC(C)(C)c1cc[n+](CC(=O)Nc2cc(C(F)(F)F)ccc2N2CCOCC2)cc1	0.715	0.1	2.7	-7.7%	3.4	17.8	0.7

Compound activity from PubChem BioAssay.
